Source: PubChem BioAssay (National Center for Advancing Translational Sciences (NCATS))
PINK1 modulator: modulators of PINK1 expression; PINK1 immunofluorescence, high-content cytometry, 24 h; Potency, µM (highest dose often 76.6 µM), without a hit: at the highest dose activation (PINK1 increase), actives largely listed as activators; hit rate 0.2% among 410,000; active = well fitted activation curve with a large enough effect; inconclusive = small, poorly fitted or top-dose-only effect; inactive = flat fitted curve, though single readings scatter; cell line not stated here;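 note: potency is the fitted concentration of half-maximal effect; % of control where 0% means no effect; nearly all actives have a fitted effect of over 65% in size; a mitochondrial uncoupler was the plate control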
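PINK1 protein, normally rapidly degraded, was detected by immunofluorescence after 24 hour compound treatment of a stable cell line. Titration data (5 concentrations) came from laser-scanning cytometry, with CCCP-treated wells as controls.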
Sfp PPTase inh: blocks B. subtilis Sfp PPTase activity. Q9F4F7. Biochemical Sfp PPTase activity, qHTS. Potency, µM, without a hit: max response, negative = inhibition, usual class: inhibitors. hit rate 3.5% among 310,000. AID 1490; active = well fitted inhibition curve with a large enough effect; inconclusive = small, poorly fitted or top-dose-only effect, or another doubt; inactive = no such curve, though single readings can be large or run the other way;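 note: the enzyme is Sfp with the accession as filed and its product quenches rhodamine fluorescence; potency is the fitted concentration of half-maximal effect; 0% = enzyme reaction without inhibitor and -100% = no enzyme wells; top concentration of the series not given in the record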
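Fluorescence-quenching assay: 15 nM Sfp-PPTase preincubated 15 min at room temperature with compound, then 5 uM rhodamine-CoA and 12.5 uM BHQ-2-labelled YbbR peptide added. Fluorescence (ex 525/em 598 nm) read at start and after 30 min; difference gives rate.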
TRPML1 agonist: agonists of human TRPML1 channel; TRPML1-expressing cells, Ca2+ dye fluorescence, FDSS; host cell line not named in the record; reference of the full effect not given here; activation, % (no concentration beside the values); hit rate 0.12% among 410,000; Q9GZU1; in the data active = activation above about 50%; inconclusive = about 30% to 50%; inactive = below about 30%; note: 0% is about no effect; the text of the record puts the active cut at 80%
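Cells: TRPML1-DL, 1X Tet inducer, ~16 h at 37 degrees C/5% CO2. Dye: ABD Ca8 no-wash + quencher, 45-90 min RT. Read: 10 s baseline, compound add, 110 s agonist phase; 54-4 EC80 (4uM final), 110 s antagonist phase.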
ClpP mod: qHTS Assay for Activators of ClpP; Potency, µM (series often up to 57.5 µM), inactives show at the highest dose activity change, negative = active; ATP-dependent Clp protease proteolytic subunit (Bacillus subtilis (strain 168)), P80244; purified B. subtilis ClpP, FRET peptide cleavage, 20 min; hit rate 1.9% among 340,000; AID 651965, 2013; active = well fitted falling curve with a large enough effect; inconclusive = small, poorly fitted or top-dose-only effect; inactive = no such curve, though single readings can be large or run the other way; note: potency is the fitted concentration of half-maximal effect; the source files actives as falling curves though it sought activators and does not explain the sign; nearly all actives have a fitted effect of over 65% in size; many hits overshoot -100%
Target sequence (P80244 whole entry, looked up): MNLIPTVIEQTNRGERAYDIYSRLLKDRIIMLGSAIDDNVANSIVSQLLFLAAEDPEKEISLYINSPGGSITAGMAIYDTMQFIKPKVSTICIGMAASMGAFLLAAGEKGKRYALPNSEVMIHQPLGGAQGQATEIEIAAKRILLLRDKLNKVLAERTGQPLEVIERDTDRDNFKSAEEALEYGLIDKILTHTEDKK
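Purified B. subtilis ClpP, 10 microg/mL final in Tris/HCl pH8 with KCl, BSA, glycerol and Tween-20, cleaved an Abz/nitrotyrosine-quenched decapeptide. Fluorescence (ex 320, em 430) was read at 0 and 20 min at room temperature. Delta was normalized to 5.8 microM ADEP and DMSO/no-enzyme controls.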
TRPML1 inh: blocks the human TRPML1 channel | TRPML1-inducible cells, Ca2+ dye fluorescence, FDSS; stronger effect = lower value; inhibition of EC80 agonist-evoked calcium signal | activity change, negative = inhibition, % (concentration not given with the values) | hit rate 0.02% among 390,000; in the data active means activity change below about -50%; inconclusive means about -30% to -50%; inactive means above about -30%;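 note: stimulus is agonist 54-4 at its EC80 concentration; % is set by controls: 0 for no effect and ±100 for the full control effect; compound concentration not given in the record; the text of the record puts the active cut at -80%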
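TRPML1-DL cells, Tet-induced overnight (~16 h, 37 °C) at 1,500 cells/well, were loaded with Ca8 no-wash dye plus quencher for 45-90 min at room temperature. Compounds were pinned during FDSS kinetic reading; agonist 54-4 at EC80 (4 uM final) then added.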
TRPV1 PAM: human TRPV1 potentiation; TRPV1-expressing cells, Fluo-8 calcium influx, capsaicin EC20 potentiation; host cell line not named in the record; control for the full effect not named in the record; potentiation, % at 8.33 µM; hit rate 0.02% among 320,000; active means potentiation above 80%; inconclusive means 30% to 80%; inactive means below 30%; note: 0% is about no effect
Target sequence (Q8NER1 whole entry, looked up): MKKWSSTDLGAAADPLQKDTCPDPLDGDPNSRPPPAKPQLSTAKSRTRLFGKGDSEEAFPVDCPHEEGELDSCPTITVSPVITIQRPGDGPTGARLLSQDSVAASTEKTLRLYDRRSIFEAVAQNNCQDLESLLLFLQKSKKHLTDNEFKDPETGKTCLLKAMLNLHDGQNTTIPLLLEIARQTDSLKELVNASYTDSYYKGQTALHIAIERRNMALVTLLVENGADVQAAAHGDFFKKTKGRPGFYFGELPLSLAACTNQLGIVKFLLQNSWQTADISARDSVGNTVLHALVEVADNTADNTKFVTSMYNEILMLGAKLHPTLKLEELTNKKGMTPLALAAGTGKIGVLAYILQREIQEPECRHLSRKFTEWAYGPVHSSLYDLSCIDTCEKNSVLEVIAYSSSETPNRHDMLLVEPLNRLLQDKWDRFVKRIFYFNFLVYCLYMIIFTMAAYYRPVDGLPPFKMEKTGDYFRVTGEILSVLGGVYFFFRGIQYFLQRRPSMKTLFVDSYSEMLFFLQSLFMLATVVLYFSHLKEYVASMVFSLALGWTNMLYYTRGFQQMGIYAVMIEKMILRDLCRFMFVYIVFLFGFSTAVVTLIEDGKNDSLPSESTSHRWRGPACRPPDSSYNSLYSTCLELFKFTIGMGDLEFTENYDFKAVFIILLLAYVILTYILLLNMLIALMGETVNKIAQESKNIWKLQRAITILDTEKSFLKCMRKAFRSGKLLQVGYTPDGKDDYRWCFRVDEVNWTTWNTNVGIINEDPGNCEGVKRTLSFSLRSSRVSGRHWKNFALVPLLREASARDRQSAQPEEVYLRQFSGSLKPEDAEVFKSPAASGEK
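Cells expressing TRPV1 were dye-loaded with Fluo-8 and read kinetically: 10 s baseline, 3 min after compound (agonist portion), then 2 min after EC20 capsaicin (allosteric enhancer portion). Calcium-bound dye fluorescence at 480/520 nm.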
Menin-MLL FL inh: displaces fluorescein MLL peptide from human menin; Fluorescence polarization, fluorescein-MLL peptide displacement from menin; FP activity change, % at 61.4 µM; 290,000 tested, under 10 active; inconclusive = falling polarisation curve, or a change in total fluorescence; inactive = total fluorescence flat and polarisation flat or rising; no compound was filed as active; the % refers to the polarisation; negative = inhibition;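 note: % of control where 0% means no effect; inhibitors lower the polarisation; unlabelled MLL peptide was the positive control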
* marks the source's active call; other numbers are inactive results; ? = inconclusive; nt = not tested or not shown; [ ] = another dose, or the depositor's remark.

SMILES	PINK1 modulator	Sfp PPTase inh	TRPML1 agonist	ClpP mod	TRPML1 inh	TRPV1 PAM	Menin-MLL FL inh
O=C1NC(Cc2ccc(O)cc2)c2nc3ccc(Cl)cc3c(=O)n2-c2cc3ccccc3cc21 (configuration not stated)	3.2%	nt	1.7	-16%	12	nt	nt
COc1ccc(C)cc1NC(=O)CN1CCN(S(=O)(=O)c2ccc(Cl)cc2)CC1	5.0%	9%	1.1	-3.6%	3	2	-1.2
Brc1ccc(CNCC2CCCO2)cc1 (configuration not stated)	-0.1%	11%	-0.6	1.1%	3	-3	9.9
O=C(Nc1ccc(S(=O)(=O)N2CCOCC2)cc1)c1ccc([N+](=O)[O-])o1	1.7%	11%	-0.3	nt	14	-2	23
Cc1c(NC(=O)C(C)n2cc([N+](=O)[O-])cn2)c(=O)n(-c2ccccc2)n1C (configuration not stated)	2.3%	-1%	0.0	nt	-11	-4	6.1
Cc1ccc(C(=O)NCCN2CCOCC2)cc1Cl	nt	1%	0.8	0.9%	3	5	-0.9
CN(C)c1cccc(-c2cc(Nc3ccc(C(C)(C)C)cc3)ncn2)c1	3.4%	nt	-0.2	?	nt	nt	nt
CC(=O)N1c2ccc(Cl)cc2C2C=CCC2C1c1cccc2ccccc12 (configuration not stated)	4.2%	?	0.5	1.6%	-5	2	8.0
O=C(COc1cccnc1[N+](=O)[O-])Nc1ccc(S(=O)(=O)N2CCOCC2)cc1	3.5%	16%	0.0	nt	-22	-6	-1.3
COC(=O)C(C(=O)OC)=C(/C=C/C=C/N(C)C)N(C)C	-1.7%[38.3 µM]	-10%	1.3	-0.7%	-10	6	?
Cn1c(/N=C(\N)c2ccccc2)nc2ccccc21	4.4%	nt	0.7	-3.4%	1	nt	nt
CCC1(c2ccc(Cl)cc2)NC(=S)N(c2ccc(C)c(C)c2)N1 (configuration not stated)	-3.5%	-10%	2.6	1.5%	-11	-5	1.8
CSc1sc(C)cc1C1C(C#N)=C(N)N(c2cccnc2)C2=C1C(=O)CC(C)(C)C2 (configuration not stated)	8.3%	22%	-0.7	-1.1%	7	-26	0.5
CCCCn1c(SCC(=O)Nc2nnc(CC)s2)nc2c1c(=O)n(C)c(=O)n2C	-5.1%[38.3 µM]	17%	-0.1	-1.4%	13	0	0.1
COc1ccc(C(CNC(=O)CN2C(=O)NC(C)(c3ccc4ccccc4c3)C2=O)N2CCCC2)cc1 (configuration not stated)	3.2%	nt	-0.2	0.6%	1	nt	nt
CS(=O)(=O)N(CC(=O)NCCSC1CCCCC1)c1cccc(F)c1	-0.2%	10%	-0.7	-0.6%	-14	1	8.3
Cc1nn(C)c(C)c1NC(=O)CCSc1nc(-c2ccco2)cc(C(F)(F)F)n1	-1.3%	-1%	0.6	-0.7%	0	nt	6.8
Nc1ncnc2c1ncn2[C@@H]1O[C@H](CNCc2ccccc2OCC(=O)N2CCCCC2)[C@@H](O)[C@H]1O	-0.3%	nt	-1.1	1.2%	21	nt	nt
COc1ccc(/C=N/NC(N)=S)cc1OC(=O)c1cccc2ccccc12	2.8%	10%	-0.4	-2.5%	-12	nt	3.9
CC1=CC=CN2C1=NC(=O)CC2(C)C(=O)N(CC(=O)NC1CCCC1)c1cc(C)cc(C)c1 (configuration not stated)	-1.5%	12%	3.7	4.2%	22	-3	0.7
CCCc1cc(=O)[nH]c(SCC(=O)CSc2nc(CCC)cc(=O)[nH]2)n1	0.6%	56µM*	-0.4	0.2%	-5	-8	-0.5
COc1ccccc1-n1c(CNC(=O)c2cccs2)n[nH]c1=S	0.1%	6%	0.0	nt	-5	8	-1.4
Cc1ccc(NC(=O)Cn2c(=O)n(CC3CCCO3)c(=O)c3ccccc32)cc1 (configuration not stated)	1.3%	nt	1.4	-2.6%	-10	nt	nt
CCN1CCN(c2ccc(N3CCN(C(=O)c4ccc(Br)o4)CC3)nn2)CC1	-5.6%	nt	3.3	-29%	22	-1	nt
O=C(O)c1ccc2c(c1)C(=O)N(CCCCCCCN1C(=O)c3ccc(C(=O)O)cc3C1=O)C2=O	3.4%	10%	0.0	nt	-4	-9	4.4
CC(=O)Nc1ccc(SCC(=O)N(CCC#N)c2cc(C)cc(C)c2)cc1	-1.3%	15%	1.6	-1.7%	-19	13	-0.1
Cc1cc(C)c2c(n1)nn1c(C)c(CCC(=O)Nc3cccc(C)c3C)c(C)nc21	4.2%	nt	0.9	5.2%	-11	nt	nt
CCN(CC)CCn1c2c(c(SCC(=O)Nc3ccccc3Cl)nc1=O)CCC2	-1.9%	nt	-0.1	-6.1%	-7	-8	nt
C=CCNc1nnc(-c2ccncc2)s1	-1.4%	21%	0.4	17%	9	0	1.7
CCOC(=O)C(=Cc1ccc2c(c1)OCO2)c1ccccc1	1.9%	nt	1.6	nt	-1	nt	nt
CCc1ccc(OCC(=O)NC(NC(=S)Nc2ccccc2C)C(Cl)(Cl)Cl)cc1 (configuration not stated)	-2.7%	29%	0.8	?	-8	-13	15
CCCC(C(=O)NC1CCCC1)N(C(=O)Cn1nnc(-c2ccc(C)o2)n1)C1CCCC1 (configuration not stated)	-1.9%[38.3 µM]	?	0.9	0.7%	-2	29	12
O=C(CSc1nnc(-c2ccccc2)o1)N1CCCc2ccccc21	-0.7%	nt	0.0	1.0%	11	nt	nt
Cc1ccc(CCNC(=O)CN2C(=O)COc3ccc(S(=O)(=O)N4CCCC4)cc32)cc1	-0.6%	nt	2.4	1.1%	10	nt	nt
O=C(Nc1ccccc1)Nc1nc(-c2ccc(Cl)cc2)cs1	-1.7%	14%	-0.7	-1.5%	-7	8	1.1
CCCCNCCOCCOc1ccccc1-c1ccccc1	8.5%	-6%	0.1	0.3%	1	22	4.8

Fetched one by one from the entries so far, 2 records:
SMILES	PINK1 modulator	Sfp PPTase inh	TRPML1 agonist	ClpP mod	TRPML1 inh	TRPV1 PAM	Menin-MLL FL inh
O=C(CSc1nnc(-c2ccccc2)o1)N1CCCc2ccccc21	-0.7%	nt	0.0	1.0%	11	nt	nt
CC(=O)Nc1ccc(SCC(=O)N(CCC#N)c2cc(C)cc(C)c2)cc1	-1.3%	15%	1.6	-1.7%	-19	13	-0.1

(further entries)
SMILES	PINK1 modulator	Sfp PPTase inh	TRPML1 agonist	ClpP mod	TRPML1 inh	TRPV1 PAM	Menin-MLL FL inh
C=CCNC(=S)NNC(=O)c1ccc(=O)n(Cc2ccc(Cl)cc2Cl)c1	0.7%	6%	-0.6	nt	-10	4	-0.8
CC(NC(=O)c1ccccc1F)c1nnc(SCC(=O)N2CCN(c3ccccc3)CC2)n1C (configuration not stated)	-0.8%	14%	0.0	25µM*	-4	?	-0.9
COc1ccc(NC(=O)COc2ccc3c(C)cc(=O)oc3c2)cc1S(=O)(=O)N1CCCCC1	5.5%	nt	-0.2	nt	30	-7	nt
CCN(c1cccc(C)c1)S(=O)(=O)c1cccc(C(=O)O)c1	4.3%[38.3 µM]	10%	2.8	-1.8%	17	-3	-0.4
CC1CCCCC1NC(=O)COC(=O)c1ccc2c(c1Cl)C(=O)c1ccccc1C2=O (configuration not stated)	2.0%	15%	2.7	0.3%	0	-12	9.7
CCOC(=O)c1cnc2c(ccc3ccccc32)c1Nc1ccccc1O	-2.9%	nt	0.8	-1.0%	12	nt	nt
O=C(c1cccc(S(=O)(=O)N2CCN(c3ccccc3)CC2)c1)N1CCCC(C(F)(F)F)C1 (configuration not stated)	2.3%	nt	0.8	2.8%	15	3	nt
COc1ccc(OC)c(NC(=S)N(CCc2c(C)[nH]c3ccc(C)cc23)Cc2cccs2)c1	9.5%	5%	-0.1	-1.5%	27	5	7.4
COc1cccc(OCc2nc3ccccc3n2CCOc2ccccc2C)c1	1.8%	nt	6.9	-1.6%	63	nt	nt
COC(=O)C1CCN(C(=O)COc2ccc(S(=O)(=O)N3CCOCC3)cc2Cl)CC1	0.4%	nt	-0.4	nt	13	nt	nt
COc1ccc(-n2c(=O)c3c4c(sc3n(CC(=O)NC3CCCC3)c2=O)CCCC4)c(OC)c1	0.7%	4%	1.0	-1.7%	16	19	0.1
O=C(N/C(=C/C=C/c1ccccc1)C(=O)N1CCCCC1)c1ccc([N+](=O)[O-])cc1	2.1%	-14%	-0.2	1.7%	-24	9	0.7
COc1ccc(CNc2nc(NCc3ccc(OC)cc3)c3ncn(C4CCCC4)c3n2)cc1	5.2%	nt	-1.0	?	1	nt	nt
COc1ccc(N(CC(=O)NC(C)(C)C)C(=O)CCC(=O)Nc2nccs2)c(OC)c1	-0.5%	13%	-0.6	1.3%	5	?	-7.6
CC(=O)N1CCN(Cc2nc3scc(-c4ccccc4)c3c(=O)[nH]2)CC1	2.6%	2%	-0.7	0.3%	-13	18	-4.3
CCOc1ccccc1/C=N/NC(=O)CNC(=O)c1cccs1	-0.2%	6%	-0.3	-3.3%	-7	6	-3.0
Cc1cc(C)cc(NC(=O)COc2coc(CN3CCc4ccccc43)cc2=O)c1	5.6%	nt	0.1	1.5%	9	8	nt
CCc1ccc(C(=O)c2cn(CC(=O)Nc3cc(OC)ccc3OC)c3nc(C)ccc3c2=O)cc1	0.8%	nt	4.3	-1.1%	-11	nt	nt
COc1ccc(N(C(=O)c2ccncc2)S(=O)(=O)c2ccc(Cl)cc2)cc1	0.9%	9%	1.7	0.4%	-3	-10	nt
Cc1ccc2cc(C(c3nnnn3C3CCCC3)N3CCN(c4ccc(F)cc4)CC3)c(=O)[nH]c2c1 (configuration not stated)	0.2%	35µM*	0.6	-12%	0	29	-2.1
COCC(=O)N1CCC[C@@]2(CCN(Cc3ccccc3)C2)C1	-1.0%	-1%	nt	nt	nt	nt	-0.5
C#Cc1ccc2c(c1)COc1c3ccccc3nn1-2	-1.7%	nt	0.0	0.8%	35	nt	nt
CC12CC(NC(=O)N1c1cccc(C(=O)N3CCCCC3)c1)c1ccccc1O2 (configuration not stated)	-0.4%	20%	-0.7	-2.1%	7	2	nt
COCCC(=O)N1CCC(Oc2ccc(C(=O)NCCSC)cc2)CC1	1.3%	-4%	-0.1	nt	-17	-1	-3.0
O=C(O)c1cc([N+](=O)[O-])ccc1Nc1ccccc1	0.2%	-5%	1.0	-1.0%	-20	10	8.7
Cc1nn(CC(=O)NCCCN2CCCCC2C)c(=O)c2cccn12 (configuration not stated)	-1.4%	-5%	0.1	0.9%	6	0	3.3
